Mtb bLac sens = beta-lactam sensitization of Mtb H37Rv | M. tuberculosis H37Rv growth with meropenem, percent inhibition; hits of this screen are not shown here | inhibition, % at 25 µM | 330,000 tested, 0.27% active | AID 434955;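 active = about 74% or more and at least 40 points above the plate without the antibiotic, then above 30% in a dose series; inconclusive = first-round hits that could not be retested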;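 note: growth measured after seven days incubation then overnight dye step; 0% = bacteria only wells and 100% = bacteria with antibiotic; twin plates without the antibiotic show which effects depend on it; some results filed as inactive read as strong as hits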
An asterisk follows results filed as active; ? = inconclusive.

molecule	Mtb bLac sens
COc1ccc(NC(=O)CN(C)C(=O)c2ccc(NS(=O)(=O)c3ccc4[nH]c(=O)[nH]c4c3)cc2)cc1	4.3
COc1cc(C(=O)OCC(=O)Nc2ccc(S(=O)(=O)N3CCCC3)cc2)cc(OC)c1OC	0.3
COc1cccc(NC(=O)CN(C)C(=O)CCCc2c[nH]c3ccccc23)c1	-1.0
NC(=O)c1ccsc1NC(=O)CN1C(=O)NC2(CCCC2)C1=O	-4.8
COc1cccc(NC(=O)CN(C)C(=O)c2ccc3c(c2)C(=O)N(CCC(C)C)C3=O)c1	-7.5
CC1CC(C)CN(C(=O)COC(=O)c2ccc(N3CCCC3=O)cc2)C1 (stereo not given)	-1.5
COc1ccc(S(=O)(=O)N2CCCCCC2)cc1C(=O)Nc1cc(C)ccn1	9.7
COCCNC(=O)[C@@H]1CCCN1S(=O)(=O)c1cccc2cccnc12	-4.2
O=C(NNC(=O)c1ccc(=O)[nH]c1)c1ccc(NS(=O)(=O)c2cccs2)cc1	-0.7
C#CCOCCOCCOCCNc1nc(N2CCN(C(=O)[C@H]([C@@H](C)CC)n3cc([C@@H](N)Cc4ccc(O)cc4)nn3)CC2)nc(N2CCN(C(=O)[C@H](Cc3cc4ccccc4[nH]3)n3cc([C@@H](N)CC(C)C)nn3)CC2)n1	99.3
C=CCn1c(=S)[nH]c2cc(C(=O)Nc3ccc(OC)c(OC)c3)ccc2c1=O	-0.6
CCN(C[C@H]1N[C@@](C)(C(=O)OC)[C@H]2C(=O)N(C)C(=O)[C@@H]12)C(=O)Nc1ccc(C(F)(F)F)cc1	3.8
Cc1ccc(NC(=O)C2C3C=CC4(O3)C2C(=O)N(CCCN2CCOCC2)C4C(=O)NC2CCCCC2)cc1Cl (stereo not given)	-0.2
CCOC(=O)c1c(C)[nH]c(C(=O)OCC(=O)NCc2ccc(F)cc2)c1C	-5.5
O=C(Cc1ccccc1F)Nc1cc(S(=O)(=O)N2CCOCC2)ccc1N1CCCC1	-9.6
Cc1ccc(S(=O)(=O)NCC(=O)N2CCc3ccccc3C2)cc1	-5.7
Cc1cc(C)n2nc(SCC(=O)N3CCC(C(=O)O)CC3)nc2n1	5.4
COC(=O)C1=C(C)N(Cc2ccccc2)C(=NCCCOC(C)C)N[C@H]1c1ccccc1	1.6
O=C1NC2(CCCCC2)C(=O)N1CC(=O)N1CCc2ccccc21	-2.8
CCOC(=O)[C@H]1[C@H]2COc3ccc(C)cc3[C@@H]2N2C(=O)CN(Cc3ccc(F)cc3)C(=O)[C@@]12C	-5.5

4 of these compounds in another layout:
Molecule: CCN(C[C@H]1N[C@@](C)(C(=O)OC)[C@H]2C(=O)N(C)C(=O)[C@@H]12)C(=O)Nc1ccc(C(F)(F)F)cc1
  Mtb bLac sens: 3.8
Molecule: Cc1ccc(NC(=O)C2C3C=CC4(O3)C2C(=O)N(CCCN2CCOCC2)C4C(=O)NC2CCCCC2)cc1Cl (stereo not given)
  Mtb bLac sens: -0.2
Molecule: CCOC(=O)c1c(C)[nH]c(C(=O)OCC(=O)NCc2ccc(F)cc2)c1C
  Mtb bLac sens: -5.5
Molecule: O=C(Cc1ccccc1F)Nc1cc(S(=O)(=O)N2CCOCC2)ccc1N1CCCC1
  Mtb bLac sens: -9.6

(more compounds)
molecule	Mtb bLac sens
CCN(CC(=O)Nc1ccc(OC)cc1)C(=O)c1ccc2[nH]c3c(c2c1)CC(C)CC3 (stereo not given)	-3.0
Cc1ccc(/C=C/C(=O)OCC(=O)N(CC(C)C)c2c(N)n(Cc3ccccc3)c(=O)[nH]c2=O)o1	-1.0
N#Cc1ccc(NC(=O)Cn2cnc([N+](=O)[O-])c2)cc1	2.4
CCN1C(=O)CSC1=Nc1ccc(C(=O)O)cc1	1.6
COc1cc(OC)cc(-c2c(-c3ccc(F)cc3)c3cc(Br)ccc3n2C)c1	15.9
COc1ccc(S(=O)(=O)N2CCCCC2)cc1NC(=O)CNc1ccc(F)cc1C	-7.2
CCC(CO)Oc1cc(NC(=O)c2cccc([N+](=O)[O-])c2)c2ncn(C(C)C)c2c1 (stereo not given)	-4.5
CC(C)(C)OC(=O)n1cc(CCO)c2ccccc21	-9.0
COc1ccccc1NC(=O)c1ccc2c(c1)CCN2S(C)(=O)=O	0.9
CC(=O)NC(C)c1cc(Cl)c2cccnc2c1O (stereo not given)	56.4
C[C@H](CO)N1C[C@H](C)[C@@H](CN(C)C(=O)Nc2ccccc2)Oc2ccc(NS(=O)(=O)c3ccc(F)cc3)cc2C1=O	-1.8
Cc1ccc(S(=O)(=O)N2CCOCC2)cc1NC(=O)CSCc1c(C)noc1C	4.9
C#CCOCCOCCOCCNc1nc(N2CCN(C(=O)CCCCCCCCCCNC(=O)[C@H](CO)n3cc(CCCSC)nn3)CC2)nc(N2CCN(C(=O)CCCCCCCCCCNC(=O)[C@H](CCCCN)n3cc(CCO)nn3)CC2)n1	6.1
Cc1ccc(-n2c(CCc3ccccc3)n[nH]c2=S)cc1C	-6.7
COc1ccc(S(=O)(=O)Nc2cccc3c2O[C@H](CN(C)CC2CCCCC2)[C@@H](C)CN([C@H](C)CO)C3=O)cc1	1.8
COc1ccccc1-c1nnc(SCC(=O)NC2CCCCC2)n1N	-2.0
CCOc1ccc(S(=O)(=O)Nc2ccc(C(=O)NCc3ccncc3)cc2)cc1	1.7
COc1ccc(Nc2nc(NN)nc(Nc3ccc(OC)cc3)n2)cc1	91.6
COc1cc(CN2CCc3ccccc3C2)cc([N+](=O)[O-])c1O	-2.6
Cc1ccc(S(=O)(=O)N2[C@@H](c3ccc(Cl)cc3)C(C(=O)O)=CC[C@H]2c2cccs2)cc1	-12.4
O=C(CSc1nc(-c2ccccc2)cs1)NCCCN1CCCC1=O	0.7
C[C@H]1CN(S(=O)(=O)c2c(F)cccc2F)CCN1S(=O)(=O)c1ccc2c(c1)OCCO2	-6.3
O=c1cc(-c2ccccc2)oc2ccccc12	1.7
O=C(NCc1ccc(Cl)cc1)C1CCCN(C(=O)c2ccc(Cl)cc2)C1 (stereo not given)	-1.2
CC1=C(CC(=O)O)c2cc(F)ccc2C1=Cc1ccc(S(C)(=O)=O)cc1	0.6
O=C(COC(=O)c1ccc(S(=O)(=O)NCc2ccco2)cc1)NCc1ccccc1	1.4
CC(Cc1ccccc1)NC(=O)CCCCC(=O)NC(C)Cc1ccccc1 (stereo not given)	-7.7
CN(C)C(=O)CSc1ccccc1C(=O)OCC(=O)NC1CC1	-4.9
Cc1ccc(CCC(=O)Nc2ccc(N(C)C)cc2)o1	-3.8
CC(C)(C)c1ccc(C(=O)NCC(=O)OCC(=O)N2CCCC2)cc1	1.3
Cc1cc(C(=O)NCC2CCCCC2)ccc1[N+](=O)[O-]	-1.3
CC(C)(C)OC(=O)NCCCCCNC(=O)c1nc[nH]c1C(=O)NCCCCCNC(=O)OC(C)(C)C	0.2
CCc1sc(C(=O)Nc2nc(-c3ccccn3)cs2)cc1C	89.2
CCC(=O)c1cn(CC(=O)Nc2ccccc2F)c2ccccc12	-7.6
CCOC(=O)C1CCCN(C(=O)c2sc3nc4n(c(=O)c3c2C)CCC4)C1 (stereo not given)	-6.4
COc1ccc(C(CNC(=O)CNC(=O)c2ccccc2)N2CCCC2)cc1 (stereo not given)	-1.6
O=C(/C=C/c1ccc(S(=O)(=O)N2CCOCC2)cc1)NC(CO)C(O)c1ccc([N+](=O)[O-])cc1 (stereo not given)	1.8
Cc1ccc2c(c1)[C@H]1[C@H](CO2)[C@H](c2ccccc2)[C@]2(C)C(=O)Nc3ccc(Br)cc3C(=O)N12	36.1
Cc1ccc(S(=O)(=O)N2CCCCC2)cc1NC(=O)COC(=O)c1cccn1C	0.3
O=S(=O)(c1ccc(Cl)cc1)c1nc(-c2ccccc2F)oc1NCCN1CCOCC1	?
O=C(CN1C(=O)NC2(CCCC2)C1=O)NC(c1ccccc1)c1ccccc1	58.7
CC[C@@]1(C(=O)OC)N[C@H](CN(C)C(=O)c2ccccc2)[C@@H]2C(=O)N(Cc3ccccc3)C(=O)[C@@H]21	-0.1
O=c1cc(-c2ccc(C(F)(F)F)cc2)oc2ccccc12	5.0
C#CCOCCOCCOCCNc1nc(N2CCN(C(=O)[C@H](CC(N)=O)n3cc(C(N)[C@@H](C)CC)nn3)CC2)nc(N2CCN(C(=O)[C@H](CCCCN)n3cc([C@@H](N)CC(N)=O)nn3)CC2)n1 (stereo not given in full)	3.1
CSCCC(C(=O)N(C)CC(=O)Nc1cccc(F)c1)N1C(=O)c2ccccc2C1=O (stereo not given)	9.5
O=C(CN1C(=O)NC(CCc2ccccc2)C1=O)N1CCCCCC1 (stereo not given)	-1.4
COc1ccc2c(c1)c(C(=O)O)c(C)n2CCc1ccc(OC)c(OC)c1	-1.1
CCCCn1c(N)c(N(C)C(=O)c2cccc(-n3cnnn3)c2)c(=O)[nH]c1=O	1.2
C[C@]12CCC(=O)C=C1C=CC1C2CC[C@]2(C)C(=O)CCC12 (stereo not given in full)	0.2
C=CCN1C(=O)c2ccc(C(=O)OCC(=O)N(CC)C3CCS(=O)(=O)C3)cc2C1=O (stereo not given)	-0.8
COc1ccccc1NC(=O)C1CCN(S(=O)(=O)c2cccs2)CC1	-2.5
Fc1ccccc1-c1cc2ccccc2cn1	3.0
O=[N+]([O-])c1ccc(-c2c(-c3ccccc3)ncc3cc(F)ccc23)cc1	30.5
COc1ccc(C=NNC(=O)c2cc(C)oc2C)cc1O	2.0
Cn1c(CCC(N)=O)nnc1SCC(=O)Nc1ccccc1C(=O)NC1CC1	-9.1
CCN(C[C@H]1N[C@@](CC)(C(=O)OC)[C@H]2C(=O)N(Cc3ccccc3)C(=O)[C@@H]12)C(=O)COC	-5.1
O=C(NC1=NCCS1)C1CCN(S(=O)(=O)c2ccc(Cl)cc2)CC1	-6.7
CCc1noc(C)c1C(=O)OC(C)C(=O)Nc1ccc2c(c1)OCO2 (stereo not given)	-5.3
Cc1onc(-c2c(F)cccc2Cl)c1C(=O)OCc1nnc(-c2ccccc2)o1	-6.7
CC(=O)C(C)n1c(CN(C)Cc2ccccc2)nc2c1c(=O)n(C)c(=O)n2C (stereo not given)	-12.2

(more compounds)
molecule	Mtb bLac sens
CCCCCCSc1cc(-c2nc3ccc(C)cn3c2NCCCC)ccc1OC	4.5
CN(Cc1ccccc1)C(=O)c1ccc(NC(=O)C2CCCN(C(=O)OC(C)(C)C)C2)cc1 (stereo not given)	6.1
C=C(C)C(COc1c2occc2cc2ccc(=O)oc12)OC(C)(C)C(O)COc1c2occc2cc2ccc(=O)oc12 (stereo not given)	0.3
O=c1c(-c2ccc(O)cc2)coc2c([C@@H]3O[C@H](CO)[C@@H](O)[C@H](O)[C@H]3O)c(O)ccc12	-1.3
CCOc1ccc(CN(CC)C(=O)Cc2c[nH]c3ccccc23)cc1OC	-3.2
CC1CCCN(C(=O)CN2C(=O)NC(C)(c3ccc4ccccc4c3)C2=O)C1 (stereo not given)	-5.2
Cc1ccc(CSc2ccc(S(=O)(=O)N3CCOCC3)cn2)cc1	2.9
CCOc1ccc(NC(=O)CN(C)C(=O)CCSc2ccc(F)cc2)cc1OCC	-5.5
CC1(C2CC2)NC(=O)N(CC(=O)Nc2ccc(F)cc2F)C1=O (stereo not given)	-3.2
COc1ccc(NC(=O)COC(=O)CCSc2ccccc2)cc1	-0.2
C[C@H](NC(=O)c1ccccc1Cl)C(=O)OCC(=O)N1CCN(c2ccccc2)CC1	3.4
COc1ccc(S(=O)(=O)Nc2ccc3c(c2)C(=O)N([C@H](C)CO)C[C@@H](C)[C@@H](CN(C)S(=O)(=O)c2ccc(Cl)cc2)O3)cc1	18.9
CCC1CCC2(CC1)NC(=O)N(CC(=O)Nc1cccc(S(=O)(=O)N(C)c3ccccc3)c1)C2=O (stereo not given)	-2.3
Cc1ccccc1OCC(=O)OCC(=O)c1ccc[nH]1	21.8
Cc1nn(-c2ccccc2)c(C)c1CN(C)C(=O)c1ccc(S(=O)(=O)NCc2ccco2)cc1	-1.2
COc1ccc(CC(=O)OCC(=O)NC2CCCC(C)C2C)cc1OC (stereo not given)	0.7
O=C(CN1CCN(c2ccccc2O)CC1)Nc1ccc2c(c1)OCCCO2	-0.8
O=C(Nc1ccccc1)c1nc[nH]c1C(=O)NCCCCNC(=O)c1[nH]cnc1C(=O)Nc1ccccc1	-2.3
COc1ccc(OCC(=O)NNC(=S)NC(=O)C2CCCCC2)cc1	?
CCCN(CC(=O)Nc1ccc(F)c(F)c1F)CC(=O)Nc1c(C)n(C)n(-c2ccccc2)c1=O	3.8

3 successive records from above, quoted:
molecule	Mtb bLac sens
O=C(Nc1ccccc1)c1nc[nH]c1C(=O)NCCCCNC(=O)c1[nH]cnc1C(=O)Nc1ccccc1	-2.3
COc1ccc(OCC(=O)NNC(=S)NC(=O)C2CCCCC2)cc1	?
CCCN(CC(=O)Nc1ccc(F)c(F)c1F)CC(=O)Nc1c(C)n(C)n(-c2ccccc2)c1=O	3.8

New compounds follow
molecule	Mtb bLac sens
O=C1NC(Cc2ccccc2)c2nc3ccc(Br)cc3c(=O)n2-c2cc(Cl)ccc21 (stereo not given)	0.4
O=C(CN(Cc1ccc(F)cc1)C(=O)c1csnn1)NC1CCCC1	-5.4
Nc1ccn(CC(=O)N[C@H](CO)Cc2c[nH]c3ccccc23)c(=O)n1	4.3
CCCCn1c(N)c(N(C)C(=O)c2c(C)nn(-c3ccccc3)c2C)c(=O)[nH]c1=O	-3.7
O=C(NC1CC1)c1ccc2c(c1)S(=O)(=O)c1cc(Cl)ccc1C2=O	4.0
COc1ccc(S(=O)(=O)N2CCCCC2)cc1NS(=O)(=O)c1ccccc1	-1.1
O=C(CSc1ccccc1C(=O)N1CCN(c2ccccc2)CC1)N1CCCC1	5.3

Compound activity (PubChem BioAssay)

This is a subset; the hit share may differ from the screen's.
